High-throughput results (PubChem BioAssay)
CtBP-E1A blk: CtBP/E1A binding inhibition. activity change, % (test concentration not listed). AlphaScreen GST-E1A/His-CtBP binding, 1536-well; active compounds read low; control for the full effect not named in the record. actives 0.49% (n = 340,000); in the data active means activity change below about -65%; inconclusive means about -30% to -65%; inactive means above about -30%; also: % is scaled to controls: 0 for no effect and ±100 for the full control effect
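Protein mix (5X: 125 nM each GST-E1A, His-CtBP) was incubated with pinned compound 2 h at 37 deg C in dark, in 50 mM Tris pH 8.0 buffer with 300 mM NaCl. Glutathione donor and nickel acceptor beads followed; AlphaScreen signal read after 1 h.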
D2 ag: human D2 receptor agonism in beta-arrestin assay. DiscoveRx PathHunter D2 beta-arrestin, luminescence, 90 min; 100% = 57 uM dopamine signal. activation, % (concentration not given with the values). actives 0.084% (n = 360,000). AID 624465; in the data active = activation above about 40%; inconclusive = about 15% to 40%; inactive = below about 15%; also: compound concentration not given in the record; the text of the record calls up to 30% inactive
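Agonist mode: compounds alone added to overnight-plated D2 PathHunter cells for 90 min at 37 C, with 57 uM final dopamine (EC100) defining full response. Beta-arrestin recruitment detected by chemiluminescent reagent, read after 1 h at ambient temperature.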
TRPML1 ag: activates the human TRPML1 channel; Q9GZU1; TRPML1-expressing cells, Ca2+ dye fluorescence, FDSS; host cell line not named in the record; reference of the full effect not given here; activation, % (no concentration beside the values); actives 0.12% (n = 410,000); in the data active = activation above about 50%; inconclusive = about 30% to 50%; inactive = below about 30%; also: 0% is about no effect; the text of the record puts the active cut at 80%
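In this qHTS format, compounds were pin-transferred onto Ca8-dye-loaded TRPML1-DL cells induced with Tet overnight, and intracellular Ca2+ fluorescence was recorded kinetically for 110 s after a 10 s baseline. A subsequent 4uM final 54-4 (EC80) addition followed by a second 110 s read served as the antagonist phase.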
PINK1 expr mod: changes PINK1 expression; PINK1 immunofluorescence, high-content cytometry, 24 h; Potency, µM (top dose mostly 76.6 µM), without a hit: at the top dose activation (PINK1 increase), most hits filed as activators; actives 0.2% (n = 410,000); AID 624263; active = well fitted activation curve with a large enough effect; inconclusive = small, poorly fitted or top-dose-only effect; inactive = flat fitted curve, though single readings scatter; cell line not stated here;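 also: potency is read from the fitted curve at half-maximal effect; % of control where 0% means no effect; nearly all actives have a fitted effect of over 65% in size; a mitochondrial uncoupler was the plate control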
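Stable cell line treated 24 h with compounds at 5 concentrations (CCCP controls), then fixed and immunostained for PINK1 plus nuclear and cell stains; PINK1 immunofluorescence quantified by laser-scanning microplate cytometry.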
TRPML1 inh: human mucolipin-1 channel inhibition; Q9GZU1; TRPML1-inducible cells, Ca2+ dye fluorescence, FDSS; active compounds read low; inhibition of EC80 agonist-evoked calcium signal; activity change, negative = inhibition, % (test concentration not listed); actives 0.02% (n = 390,000); AID 624415; in the data active means activity change below about -50%; inconclusive means about -30% to -50%; inactive means above about -30%;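 also: stimulus is agonist 54-4 at its EC80 concentration; % is scaled to controls: 0 for no effect and ±100 for the full control effect; compound concentration not given in the record; the text of the record puts the active cut at -80%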
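Tet-induced TRPML1-DL cells loaded with Ca8 no-wash calcium dye were read kinetically on FDSS. Compound addition was followed by EC80 agonist 54-4 (4 uM final); inhibition was read over 110 s.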
Six1-Eya2 blk: inhibitors of human Six1/Eya2 interaction; Q15475+O00167; AlphaScreen GST-Six1/His-Eya2 binding, biochemical; active compounds read low; control for the full effect not named in the record; activity change, % (concentration not given with the values); actives 0.56% (n = 360,000); in the data active = activity change below about -65%; inconclusive = about -30% to -65%; inactive = above about -30%; also: % is scaled to controls: 0 for no effect and ±100 for the full control effect
Target sequence (O00167 whole entry, looked up): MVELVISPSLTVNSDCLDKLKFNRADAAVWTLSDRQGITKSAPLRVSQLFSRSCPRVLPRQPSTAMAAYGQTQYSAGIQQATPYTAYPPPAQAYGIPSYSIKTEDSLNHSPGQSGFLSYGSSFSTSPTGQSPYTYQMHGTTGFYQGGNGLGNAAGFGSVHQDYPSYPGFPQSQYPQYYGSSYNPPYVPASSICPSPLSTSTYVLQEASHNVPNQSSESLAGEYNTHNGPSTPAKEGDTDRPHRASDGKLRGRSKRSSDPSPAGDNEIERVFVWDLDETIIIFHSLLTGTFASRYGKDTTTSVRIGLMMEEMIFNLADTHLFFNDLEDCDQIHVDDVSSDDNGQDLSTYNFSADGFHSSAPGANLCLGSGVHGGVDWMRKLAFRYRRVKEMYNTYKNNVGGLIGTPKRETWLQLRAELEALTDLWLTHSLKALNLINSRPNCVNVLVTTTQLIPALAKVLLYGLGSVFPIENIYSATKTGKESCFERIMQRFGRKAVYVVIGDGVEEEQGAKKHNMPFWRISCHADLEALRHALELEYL
Target sequence (Q15475 whole entry, looked up): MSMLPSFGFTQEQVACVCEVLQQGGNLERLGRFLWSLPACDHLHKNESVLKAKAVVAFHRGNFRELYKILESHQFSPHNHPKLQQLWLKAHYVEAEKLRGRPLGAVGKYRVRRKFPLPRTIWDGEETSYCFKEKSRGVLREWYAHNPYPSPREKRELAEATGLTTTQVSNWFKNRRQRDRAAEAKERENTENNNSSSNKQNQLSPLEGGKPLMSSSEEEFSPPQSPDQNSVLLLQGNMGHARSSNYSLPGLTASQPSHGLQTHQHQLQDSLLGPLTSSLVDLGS
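Six1/Eya2 binding was read as AlphaScreen signal after compounds were pinned into GST-Six1 plus His-tagged Eya2 (5X stock 250/500 nM) in pH 8.0 Tris/NaCl/TCEP buffer, beads added, then incubated 1 h, 37 C, dark.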
Numbers without * were called inactive; ? = inconclusive; nt = no result given; [ ] = another dose, or the depositor's remark. Outcome played no part in choosing rows; about 1% have a hit in one of these screens.

SMILES	CtBP-E1A blk	D2 ag	TRPML1 ag	PINK1 expr mod	TRPML1 inh	Six1-Eya2 blk
CCN1C(=NCCc2ccc([N+](=O)[O-])cc2)N[C@@H](c2ccccc2)[C@H](C(=O)OC)[C@H]1C	-2.3	-1.1	-0.1	-0.9%	14.6	3.5
Cc1cc(C(=O)N/N=C/c2ccc[nH]2)no1	-25.6	-3.2	1.2	-1.8%	48.0	-8.6
Cc1ccc(CC#N)c(-c2c(CC#N)ccc(C)c2C)c1C	1.2	-3.2	78.5*	1.4%	-16.0	6.7
Cc1ccc(-c2nc3ccc(Cl)cn3c2Nc2ccc3c(c2)OCCO3)s1	nt	nt	3.6	-0.7%	0.2	nt
Cc1ccc(-c2nn(-c3ccccc3)cc2C(=O)NCC2CCCO2)cc1 (stereo not drawn)	17.9	-6.0	-0.3	3.4%	-2.3	-0.4
COc1ccccc1CNC(=O)C1CCC(CNS(=O)(=O)c2ccc(NC(C)=O)cc2)CC1 (stereo not drawn)	-0.9	-4.9	-0.4	0.2%	5.4	-1.7
CCOc1ccc(CCNC(=O)c2cc(C)on2)cc1OCC	-18.5	5.4	-0.7	-1.0%	34.6	-8.9
Cc1ccc(COc2ccc(C)nc2[N+](=O)[O-])cc1	1.3	1.1	-0.3	0.2%	23.4	4.0
CCOC(=O)N1CCN(CC(O)COc2ccc3c(c2)CCC3)CC1 (stereo not drawn)	2.8	1.2	-0.8	-0.1%	25.2	-0.4
COc1cc(OC)c(NC(=O)C2CCN(S(=O)(=O)c3ccc4c(c3)CC(C)N4C(C)=O)CC2)cc1Cl (stereo not drawn)	nt	-0.4	0.8	0.4%	-13.0	-14.7
Cn1c(=N)n(CC(=O)C(C)(C)C)c2ccccc21	8.3	-3.6	2.1	-2.6%	-20.5	10.9
O=C(CSc1nccn1Cc1ccccc1)Nc1ccc2c(c1)OCCO2	nt	nt	3.2	8.0%	13.9	nt
CCCN1CCN(CCCNC(=O)CN2C(=O)c3cccnc3Oc3ccc(Cl)cc32)CC1	-13.1	-10.0	0.2	-1.1%	6.4	-7.9
c1ccc(C2Nc3cccc4cccc(c34)N2)cc1	5.9	4.0	3.8	-4.4%	-0.9	-5.0
Cc1ccc(S(=O)(=O)N2CCC(C(=O)N3Cc4ccccc4C3)CC2)cc1	3.8	-3.6	2.7	-0.7%	2.6	-0.5
COc1ccc(/C(C)=N/OCC(=O)N=Nc2c(O)[nH]c3ccc(Br)cc23)cc1	-1.4	-2.0	1.8	1.0%	-3.4	5.3
CC1Cc2ccccc2N1C(=O)CSc1nnc(-c2ccc(S(=O)(=O)N3CCCC3)cc2)o1 (stereo not drawn)	5.4	-2.8	-0.7	9.1%[38.3 µM]	-0.4	-0.7
Cc1cc(C)c(S(=O)(=O)n2c([N+](=O)[O-])cnc2C)cc1C	1.5	-0.7	-0.1	-1.1%	27.6	7.6
COC(=O)COc1ccc2oc(=O)cc(-c3cc4cccc(OC)c4o3)c2c1	3.8	-0.3	-1.0	0.4%	-0.6	1.0
CC1=Nc2ncnn2C(c2ccccc2)/C1=N\O (stereo not drawn)	-1.4	-1.2	0.6	nt	-0.1	-0.7
CCSc1nc2ccccc2n1CC(=O)N1CCCCC1	2.6	-1.9	-0.3	-1.9%	21.2	11.0
COC(=O)c1cccc(S(=O)(=O)N2CCC(NC(=O)Nc3cccc(F)c3)CC2)c1	1.2	-1.6	1.2	20.9%[38.3 µM]	-12.1	0.7
CCCCN(C)CCN1C(=O)C2C(C(=O)Nc3ccc(C)cc3)C3C=CC2(O3)C1C(=O)NC1CCCCC1 (stereo not drawn)	0.0	-1.8	-0.3	0.5%	-1.9	-11.4
CC1=C(C(=O)OCc2ccccc2)C(c2ccc(C(C)(C)C)cc2)NC(=O)N1CCCCCC(=O)O (stereo not drawn)	3.9	-1.0	-0.1	1.5%	13.0	-0.3
O=C1C2C3C=CC(C3)C2C(=O)N1Nc1c(Cl)cc(Cl)cc1Cl (stereo not drawn)	6.2	-1.9	-0.7	0.3%	5.7	1.4

An excerpt from above in order of the CtBP-E1A blk value, high to low:
| structure | CtBP-E1A blk |
| --- | --- |
| Cc1ccc(-c2nn(-c3ccccc3)cc2C(=O)NCC2CCCO2)cc1 (stereo not drawn) | 17.9 |
| CC1Cc2ccccc2N1C(=O)CSc1nnc(-c2ccc(S(=O)(=O)N3CCCC3)cc2)o1 (stereo not drawn) | 5.4 |
| Cc1cc(C(=O)N/N=C/c2ccc[nH]2)no1 | -25.6 |

Next section:
SMILES	CtBP-E1A blk	D2 ag	TRPML1 ag	PINK1 expr mod	TRPML1 inh	Six1-Eya2 blk
O=C(COC(=O)c1cccc(O)c1)c1ccccc1	-3.9	1.1	2.6	-4.0%	29.5	-6.4
CCOC(=O)c1ccc(OCC(=O)c2ccc(O)cc2O)cc1	0.5	-0.9	-0.6	-0.6%	6.1	-3.0
CCOC(=O)c1ccccc1NS(=O)(=O)c1ccc(C)cc1	7.4	-6.3	2.0	1.4%	-13.1	4.4
Cc1ccc(OCCn2cc(Br)c(=O)[nH]c2=O)cc1	1.8	1.0	-0.7	0.4%	-0.4	3.1
Cc1ccc(OC(C)C(=O)Nc2ccccc2C(=O)N2CCOCC2)cc1 (stereo not drawn)	1.0	-2.4	0.0	-0.2%	16.1	-5.9
CC1=C(C(=O)OC(C)(C)C)C(c2cccs2)NC(=O)N1 (stereo not drawn)	0.3	-3.8	0.9	0.2%	14.1	10.5
CCn1c(C(=O)N2CCC(C(=O)NCCCOC)CC2)cc2sccc21	nt	nt	-0.5	3.0%	23.7	nt
CCOc1cc(N2CCOCC2)c(OCC)cc1NC(=O)c1ccc(C)cc1	8.6	-2.8	-0.4	1.3%	-9.4	-14.7
O=C1c2ccccc2C(O)(Cc2ccccc2)N1CCCN1CCOCC1 (stereo not drawn)	2.5	-0.8	0.4	-5.7%[38.3 µM]	2.8	1.9
CCCCCCSc1ccc([C@H]2N[C@@](Cc3ccccc3)(C(=O)OC)[C@H]3C(=O)N(C)C(=O)[C@@H]23)cc1OC	2.2	-9.4	-0.4	4.0%	-11.6	0.7
O=Cc1ccc(OCC(=O)N2CCOCC2)cc1	-19.0	-1.3	-0.6	5.3%	11.5	-7.5
COC(=O)C1CCN(S(=O)(=O)CCNC(=O)c2ccc(F)cc2)CC1	-22.3	-4.5	-0.6	1.7%	2.9	-14.6
Cc1cccc(Cc2cnc(N3C(=N)SC(C)C3=O)s2)c1 (stereo not drawn)	-10.2	-3.9	1.2	1.8%	-1.4	0.6
O=C(Nc1cccc([N+](=O)[O-])c1)N1CCCc2ccccc21	2.3	-1.4	-0.8	0.2%	-8.6	-0.2
CCCCNC(=O)C1(C)CCC(=O)N1CCc1c[nH]c2ccccc12 (stereo not drawn)	7.8	-4.1	0.3	-0.4%	nt	5.7
O=Nc1c(O)[nH]c2ccc(Cl)c(Cl)c12	?	-13.7	4.4	-3.7%	55.9	?
COc1ccccc1C(=O)NC1CCN(C(=O)Nc2ccc(F)cc2)CC1	0.0	3.2	0.0	1.4%	-11.2	-1.6
CC(NC(=O)Nc1nnc(C(F)(F)F)s1)N1C(=O)C2C3C=CC(C3)C2C1=O (stereo not drawn)	11.6	-3.4	0.6	1.7%	0.0	-0.8
O=C(COC(=O)C1c2ccccc2Oc2ccccc21)NC1CCS(=O)(=O)C1 (stereo not drawn)	2.4	-1.8	2.5	0.1%	-7.2	1.7
Cc1cccc(-c2nc(Nc3ccc(N4CCOCC4)cc3)c3ccccc3n2)c1	-28.4	-0.6	0.4	5.4%	11.6	-23.9
CC(C)C[C@H]1CN(CCCC[C@H]2CNC(=O)C(=O)N2CCc2ccc(O)cc2)C(=O)C(=O)N1CCC1CCCCC1	0.0	nt	-0.4	0.4%	nt	0.0
COCC(=O)Nc1ccc(N2CCN(c3ccccc3)CC2)c(F)c1	0.0	7.5	0.2	-0.4%	-9.6	3.5
O=S(=O)(CS(=O)(=O)Oc1ccccc1)Oc1ccccc1	9.9	-0.2	-0.2	-0.1%	-19.0	7.8
O=C(NC1CCCCC1)C(c1ccncc1)N(Cc1ccc(F)cc1)C(=O)c1ccccn1 (stereo not drawn)	nt	-2.4	0.6	0.2%	19.6	0.6
Cc1sc2nc(C3CC3)nc(SCC(=O)N3CCc4ccccc4C3)c2c1C	2.2	0.3	-0.4	2.2%	-5.4	-0.1
Additional compounds
SMILES	CtBP-E1A blk	D2 ag	TRPML1 ag	PINK1 expr mod	TRPML1 inh	Six1-Eya2 blk
CCCCNc1nccnc1-c1cccc(C=O)c1	-2.0	-3.9	-0.9	-0.2%	nt	2.4
CCOc1ccc(C2=Nn3c(CC)nnc3SC2)cc1	0.7	-2.3	1.1	8.2%	23.3	-1.5
O=C(CCc1nc2ccccc2c(=O)[nH]1)NCCN1C(=O)S/C(=C\c2ccccc2Cl)C1=O	-2.6	-2.2	0.8	1.1%	-2.5	6.6
Cc1cc(C(=O)N2CCCC(N3CCN(c4cccc(Cl)c4)CC3)C2)nn1C (stereo not drawn)	1.1	0.5	-0.4	-0.7%	-10.9	1.9
Clc1ccc(/C=C/c2ncc[nH]2)c(Cl)c1	-0.5	2.4	2.1	1.6%	13.9	-2.0
CC(=O)Nc1cccc(S(=O)(=O)N2CCCCCC2)c1	4.5	-2.4	1.3	-2.1%	-18.4	1.4
COc1ccc(OC)c(-n2c(CNC3CCN(Cc4ccccc4)CC3)nc3ccccc3c2=O)c1	1.1	-2.1	0.9	7.0%[38.3 µM]	16.5	-1.7
Cc1ccc(CNC(=O)c2c(-c3ccccc3)sc3ccccc23)o1	2.2	0.4	1.2	1.1%	23.0	-1.0
O=C(c1ccccc1Cl)N(Cc1ccco1)c1ccccn1	nt	nt	0.0	-0.9%	11.1	nt
O=[N+]([O-])c1cccc(S(=O)(=O)N/N=C/c2ccc(O)cc2)c1	1.1	-8.3	0.0	3.2%	-14.1	12.6
Cc1cc(C)nc(-n2nc(C)c3c(=O)[nH]c(C(F)(F)F)nc32)n1	-0.3	-3.8	-0.1	1.9%	17.6	-8.1
O=C1CC(c2ccc(Cl)cc2)c2cc3c(cc2N1)OCCO3 (stereo not drawn)	nt	nt	-0.3	1.2%	-10.8	nt
C=CCN=C(C)C1=C(O)CCC1=O	4.5	1.6	-0.9	-0.8%	-4.6	-1.1
CCOc1ccc(NC(=O)c2ccc(N3CC4CC(C3)c3cccc(=O)n3C4)c(NC(=O)c3cccnc3)c2)cc1 (stereo not drawn)	-0.1	2.6	-0.3	-1.6%	-3.4	-1.1
CCCn1c(=O)c2ccccc2n2c(Sc3nnnn3-c3ccccc3)nnc12	-2.1	-2.9	0.5	0.9%	-6.8	-9.1
COc1cc(S(=O)(=O)NC(Cc2c[nH]c3ccccc23)C(=O)O)ccc1NC(C)=O (stereo not drawn)	6.2	-7.0	0.1	-1.3%	-1.1	9.3
COc1ccc(C)cc1NC(=O)N1CC(C)Sc2ccccc21 (stereo not drawn)	nt	nt	0.5	0.6%	6.0	nt
CC1CCCN(S(=O)(=O)c2cccc([N+](=O)[O-])c2)C1 (stereo not drawn)	nt	2.8	-0.4	-1.6%	2.7	7.2
